Bfl-1 A1 inh: inhibitors of the anti-apoptotic protein A1, read as caspase activation | AID 2462 | 330,000 tested, 0.066% active | caspase activation, % (test concentration not listed) | MEF A1-2A-BIM cells, Caspase-Glo 3/7 luminescence, 3 h; percent of clofoctol response, vehicle zero;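 active = over half of replicate activation scores above 10%, or exactly half above 10 with the replicate mean above 10; inconclusive = replicate mean below 10 yet half the replicates above 10; inactive = over half of replicates below 10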;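 note: wells of about 30 µL received 50 nL stock; many hits fall short of the cut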
RanGTP-Impb inh: inhibitors of RanGTP-importin-beta interaction, primary screen, biochemical, FRET, CFP-Ran, YFP-importin-beta, homogeneous; cell-free CFP-Ran/YFP-importin-beta FRET ratio; inhibition, % (concentration not given with the values); 300,000 tested, 1.1% active;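 active = most replicates above 15%; inconclusive = exactly half above 15%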;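 note: 0% = DMSO wells and 100% = Ran loaded with GDP instead of GTP; wells of about 40 µL received 100 nL stock; the first replicate is given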
Vif A3G: HIV-1 Vif–A3G interaction blockers – biochemical, TR-FRET, GST-Vif 1-94, biotin-A3G peptide, dose response retest, primary screen (AID 1117319). TR-FRET GST-Vif / biotin-A3G peptide binding; higher % means a stronger effect; test concentration not given here; strong numbers were not always called active. inhibition, %, or IC50 in µM where a hit was titrated. 260,000 tested, 0.57% active;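 active = above the screen mean plus three standard deviations and confirmed in dose response; inconclusive = results disagree or hit not tested in dose response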;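 note: Vif residues 1-94 fused to GST binding biotinylated APOBEC3G peptide 110-148; 0% = full assay without inhibitor and 100% = GST in place of GST-Vif; retest series ran down from 100 µM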
AF4-AF9 inh: MLL-AF4/AF9 protein interaction inhibition | 350,000 tested, 0.47% active | inhibition, % at 10 µM | AID 651704 | AlphaScreen, biotin-AF4 peptide binding to FLAG-AF9 | P42568;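 active = every replicate reaching a set inhibition limit, whatever the replicate mean, cut at about 25% in these data; inconclusive = mean inhibition reaches that limit but some replicates miss it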;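 note: 0% = plate neutral control median and 100% = total signal loss; the record names both 10 and 1 µM as test concentration; the first replicate is given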
Target sequence (P42568 whole entry, looked up): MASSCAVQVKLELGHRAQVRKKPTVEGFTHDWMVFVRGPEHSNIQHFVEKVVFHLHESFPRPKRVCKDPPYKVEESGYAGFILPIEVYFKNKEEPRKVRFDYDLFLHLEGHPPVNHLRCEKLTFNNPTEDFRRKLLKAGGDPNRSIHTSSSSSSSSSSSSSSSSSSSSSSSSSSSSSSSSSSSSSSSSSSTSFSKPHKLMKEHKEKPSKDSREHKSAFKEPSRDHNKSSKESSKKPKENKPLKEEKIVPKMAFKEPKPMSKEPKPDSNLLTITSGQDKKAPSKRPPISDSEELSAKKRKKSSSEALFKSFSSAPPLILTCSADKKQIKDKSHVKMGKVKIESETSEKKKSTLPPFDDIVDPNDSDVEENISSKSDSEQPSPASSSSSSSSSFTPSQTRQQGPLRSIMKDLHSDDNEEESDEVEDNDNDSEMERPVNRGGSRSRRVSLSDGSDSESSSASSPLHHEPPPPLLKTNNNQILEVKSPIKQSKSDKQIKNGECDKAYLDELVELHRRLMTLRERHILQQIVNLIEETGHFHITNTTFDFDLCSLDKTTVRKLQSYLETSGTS
Beta apoptosis: blocks beta cell apoptosis; INS-1E cytokine-induced death, ATP luminescence, 48 h; percent of positive-control rescue, neutral wells zero; protection from apoptosis, % (concentration not given with the values); 300,000 tested, 0.8% active;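 active = all replicates at 75% or more, or half of them and the mean; inconclusive = half reach 75% but not the mean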;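 note: 0% = cytokine-treated negative control wells and 100% = positive control rescue; higher means more ATP so stronger rescue from cytokine killing; wells of about 40 µL received 100 nL stock; the first replicate is given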
T cruzi repl: T. cruzi replication inhibition; T. cruzi beta-gal in NIH3T3, luminescence, 90 h; inhibition, % (test concentration not listed); 300,000 tested, 1.4% active;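 active = mean inhibition across valid replicates above about 55%, limit read from the data; inconclusive = mean below that limit but half or more replicates reach it; inactive = mean below it, under half of replicates reach it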;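 note: signal also drops with host cell toxicity which is not excluded here; 0% = plate median of DMSO wells and 100% = zero luminescence signal; higher percent means less beta-gal luminescence so fewer parasites; stock transfer was 50 nL into about 50 µL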
Calb FLC: affects C. albicans growth with fluconazole; AID 1979; C. albicans CaCi-2 (fluconazole-resistant clinical isolate) + fluconazole, Alamar Blue growth, 48 h; 300,000 tested, 0.57% active; growth inhibition, % (test concentration not listed);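 active = most replicates above 75%; inconclusive = exactly half above 75%; inactive = most below 75%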;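 note: all wells also contain fluconazole at 8 µg/ml as a sub-toxic cotreatment; 0% = median of DMSO wells and 100% = median of geldanamycin control wells; wells of about 8 µL received 7.5 nL stock; the first replicate is given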
rRNA inh HTS: inhibits bacterial ribosomal RNA function over humanized ribosomes. GFP signal change (wild-type ribosome), % (test concentration not listed). E. coli WT GFP vs humanized-ribosome RFP mutants, fluorescence, 24 h; hits give low values; DMSO median 0, no signal -100. AID 720706. 350,000 tested, 1.6% active;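 active = significant combined selectivity score with lowered wild-type GFP, culture density cut under 30%, mutant RFP and density less affected; inactive = any of these conditions unmet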; note: one replicate is shown; some compounds called inactive have numbers as strong as hits
rRNA inh HTS OD600: second read-out of rRNA inh HTS, no call of its own (marks repeat the call); OD600 change, %; measured here: OD600 growth;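 optical density of the mix in the first replicate; 0 = DMSO median and -100 = no signal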
rRNA inh HTS RFP: recorded beside rRNA inh HTS, whose call it bears; RFP signal change, %; measured here: RFP humanized mutant strains;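 first replicate; 0 = DMSO median and -100 = no signal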
* marks the source's active call; other numbers are inactive results; ? = inconclusive; . = not tested or not shown.

SMILES	Bfl-1 A1 inh	RanGTP-Impb inh	Vif A3G	AF4-AF9 inh	Beta apoptosis	T cruzi repl	Calb FLC	rRNA inh HTS	rRNA inh HTS OD600	rRNA inh HTS RFP
COc1ccc(CNC(=O)CN(CCC(C)C)S(=O)(=O)c2ccc3c(c2)OCCO3)cc1	1.1	1.4	.	1.3	2	9	11	-19	-21	5.1
CCCCCC(=O)NNC(=O)c1ccc(-c2ccccc2)cc1	-0.1	-0.8	2%	2.0	-2	-14	12	6	10	-3.4
COCc1nnc(NC(=O)c2ccccc2Oc2ccccc2)s1	-0.3	5.2	-20%	-0.9	.	-8	?	-6	-9	0.0
Cc1nc(C(=O)NC2CC2)sc1C1(C)CC(c2cccc([N+](=O)[O-])c2)=NO1 (stereo unspecified)	-0.7	1.2	0%	.	1	-3	-3	.	.	.
CC(NC(=O)COC(=O)CCc1ccccc1)c1ccccc1 (stereo unspecified)	-0.2	-4.1	6%	.	6	-5	-2	.	.	.
Cc1ccc(C)c(N2CCN(S(=O)(=O)c3cc4c(cc3Cl)NC(=O)CO4)CC2)c1	0.3	-3.0	.	-4.0	-16	19	9	-4	7	-1.4
Cc1ccc2c(c1)nnn2C1CCN(CC(=O)NCc2ccccc2F)CC1	-0.6	5.0	.	-8.2	2	4	-4	-1	1	-1.6
O=C(O)/C=C/c1ccc(OCc2cccc(F)c2)cc1	-2.3	-5.4	-5%	-1.2	-6	-4	?	-22*	-16*	-4.4*
O=C(O)CCc1ccc(-c2cccs2)n1NC(=O)c1ccc(Cl)cc1Cl	1.9	-3.7	30%	.	-4	-9	-9	.	.	.
COc1ccc(N2CCN(C3CCCN(C(=O)CSC)C3)CC2)cc1 (stereo unspecified)	-1.3	-3.3	.	-1.1	0	0	5	-4	2	0.9

Reprinted from the part before: 6 compounds, then new ones.
SMILES	Bfl-1 A1 inh	RanGTP-Impb inh	Vif A3G	AF4-AF9 inh	Beta apoptosis	T cruzi repl	Calb FLC	rRNA inh HTS	rRNA inh HTS OD600	rRNA inh HTS RFP
CC(NC(=O)COC(=O)CCc1ccccc1)c1ccccc1 (stereo unspecified)	-0.2	-4.1	6%	.	6	-5	-2	.	.	.
Cc1ccc(C)c(N2CCN(S(=O)(=O)c3cc4c(cc3Cl)NC(=O)CO4)CC2)c1	0.3	-3.0	.	-4.0	-16	19	9	-4	7	-1.4
Cc1ccc2c(c1)nnn2C1CCN(CC(=O)NCc2ccccc2F)CC1	-0.6	5.0	.	-8.2	2	4	-4	-1	1	-1.6
O=C(O)/C=C/c1ccc(OCc2cccc(F)c2)cc1	-2.3	-5.4	-5%	-1.2	-6	-4	?	-22*	-16*	-4.4*
O=C(O)CCc1ccc(-c2cccs2)n1NC(=O)c1ccc(Cl)cc1Cl	1.9	-3.7	30%	.	-4	-9	-9	.	.	.
COc1ccc(N2CCN(C3CCCN(C(=O)CSC)C3)CC2)cc1 (stereo unspecified)	-1.3	-3.3	.	-1.1	0	0	5	-4	2	0.9
CC(C)(C)c1ccc(C2C(C(=O)c3ccco3)=C(O)C(=O)N2CC2CCCO2)cc1 (stereo unspecified)	0.3	3.4	.	0.8	-4	-2	6	-3	4	-2.2
CC(CNc1ccc([N+](=O)[O-])cc1)NC(=O)c1ccccc1Br (stereo unspecified)	0.7	0.7	0%	.	1	2	5	.	.	.
CCC[C@H]1COCCS(=O)(=O)N1Cc1ccccc1F	0.3	?	.	1.4	-7	-12	-7	1	3	-9.0
CC1=CC(C)(C)N2C(=O)C3(C(C#N)=C(N)Oc4cc(O)ccc43)c3cccc1c32 (stereo unspecified)	0.9	-0.8	4%	.	-6	11	-11	.	.	.
O=C(O)c1cc(-c2ccc(Cl)cc2)n(-c2ccc(F)cc2)n1	-0.4	-3.5	.	-0.2	-3	-13	10	-9	-13	0.5
CCOP(=O)(OCC)C(Nc1ccccn1)c1ccccc1 (stereo unspecified)	0.3	2.0	.	.	-1	-15	8	.	.	.
c1ccc(-c2nc(N3CCOCC3)c3ccccc3n2)nc1	0.2	-1.5	17%	.	31	-31	-4	.	.	.
COc1ccc(CN(C(=O)Cc2cccs2)C(C(=O)NC2CCCC2)c2ccncc2)cc1 (stereo unspecified)	0.1	-3.0	3%	.	1	66*	10	.	.	.
CN(C)/N=C/c1cc(Cl)cc([N+](=O)[O-])c1O	1.0	5.3	4%	3.4	2	44	4	2	6	-1.2
COc1ccccc1NS(=O)(=O)c1cc(NC(=O)C2CCCO2)ccc1C (stereo unspecified)	0.2	.	.	1.7	1	.	.	1	-3	0.4
Cc1cc(C)n2nc(C(=O)OCC(=O)N3C(C)CCCC3C)nc2n1 (stereo unspecified)	-0.4	-1.0	-2%	-2.5	-11	-1	-2	25	10	0.9
O=C(CN(Cc1ccccc1)S(=O)(=O)c1ccc(Br)cc1)N/N=C/c1ccccc1C(=O)O	-0.1	0.4	.	-41	-12	3	-3	-1	-6	6.0
O=C(NCc1ccc(Cl)cc1)c1ccc2ccccc2n1	-1.0	?	.	-3.8	-12	2	7	1	2	0.6
Cc1cc2nc(CO)[nH]c2cc1C	1.3	5.5	11%	-1.1	-5	8	6	8	12	-2.1
COc1ccc(-n2c(=O)c3ccccc3n(CC(=O)NCc3ccco3)c2=O)cc1	0.8	7.9	-3%	-5.4	3	-11	-5	14	4	-4.0
COc1ccc(OC)c(C(=O)NC(CC(N)=O)c2ccc(N3CCCCCC3)c([N+](=O)[O-])c2)c1 (stereo unspecified)	0.4	0.1	.	4.5	3	-5	-2	-7	-17	8.1
Cc1nn2c(c1-c1ccccc1)NC1=C(C(=O)CCC1)C2c1ccccc1 (stereo unspecified)	0.3	2.2	-2%	.	4	19	-6	.	.	.
O=C(N/N=C/c1cccc(Cl)c1)C(c1ccncc1)N1CCOCC1 (stereo unspecified)	0.0	3.2	3%	-4.8	.	0	4	10	10	-0.1
COC(=O)CCCC1=CC2=C(c3ccccc3)C(=O)C(C)(OC(=O)C3CCCC3)C(=O)C2=CN1c1ccc(OC)cc1 (stereo unspecified)	0.7	-9.1	14%	7.3	-3	2	-3	-1	10	-1.9
O=C1NC(=Nc2cccc(O)c2)S/C1=C\c1cccc([N+](=O)[O-])c1	-2.1	-1.8	-8%	-2.0	.	-5	19	-2	7	-1.0
CC(=O)Nc1ccc(S(=O)(=O)N(C)CC(=O)Nc2cccc(S(=O)(=O)N3CCCC3)c2)cc1	0.5	1.0	5%	-2.9	5	1	9	-3	-2	-2.2
COc1ccc(Nc2cc(Nc3cc(OC)c(OC)c(OC)c3)ncn2)cc1	-0.9	0.1	-2%	1.6	10	-2	8	0	-5	7.4
CCOc1ccc(CNC(=O)c2ccc(Sc3ccc(C)cc3)c(NC(C)=O)c2)cc1OC	0.7	0.3	-14%	2.8	-4	11	3	-18	-9	28
CCCn1cc(SCC(=O)NCc2ccc3c(c2)OCO3)c2ccccc21	-0.2	?	5%	-5.9	-8	16	-17	-14	-28	-4.6
Cc1cc(C(=O)CSc2nc(N)cc(=O)[nH]2)c(C)n1-c1ccc(OC(F)F)cc1	-0.6	?	-12%	0.6	46	20	-1	-1	6	0.7
Cc1nc2c(=O)oc3ccccc3c2n1-c1ccccc1	-0.7	-1.3	2%	.	-2	-6	92*	.	.	.
CCCCC1(C)Nc2ccccc2-c2nc3ccccc3n21 (stereo unspecified)	-4.0	1.0	1%	.	1	9	-17	.	.	.
S=C(NCc1ccco1)N/N=C/c1ccccc1Cl	-0.7	1.0	.	.	1	-21	-2	.	.	.
O=C(CCNS(=O)(=O)c1ccc(F)c(F)c1)NCCN1CCOCC1	-0.1	.	.	-2.5	0	.	.	-4	3	-0.7
Cn1cc(/C=N/NC(=O)COc2ccccc2[N+](=O)[O-])c2ccccc21	-0.1	3.9	?	-4.8	-2	-1	7	4	10	-1.2
C=CCN1C(=O)CN=C1Nc1ccc(OC)cc1OC	0.3	-0.2	-3%	.	0	-4	-2	.	.	.
CCCNC(=O)c1c(O)c2c([nH]c1=O)CCCC2	-0.1	?	0%	-0.2	-3	8	15	11	8	0.0
COC(=O)c1cccc(NC(=O)NC23CC4CC(CC(C4)C2)C3)c1	0.7	0.2	-3%	.	9	8	-19	.	.	.
CC(C)c1ccc(S(=O)(=O)c2cc3cc(Br)ccc3oc2=O)cc1	0.5	4.0	.	.	-14	-12	?	.	.	.
CSc1ccccc1C(=O)OCC(=O)N1CCCCCC1	-1.9	.	-1%	-0.4	3	.	.	11	9	7.4
COc1ccc(CCN(C)CC(=O)Nc2cc(C)nc3ccccc23)cc1OC	-0.5	4.1	3%	-11	-10	2	3	-7	3	1.2
Cc1ccc(/C=N/c2sc3c(c2C(N)=O)CCCC3)o1	-1.7	3.1	22%	1.3	5	-5	15	-13	-7	-3.8
C/C(=N/NC(=O)CN1CCN(Cc2ccccc2Cl)CC1)c1cccnc1	0.6	2.4	3%	-1.3	3	18	26	22	14	3.9
C/C(=N\NC(=O)c1ccc(CSc2nncn2C)cc1)c1ccc(Cl)cc1	0.6	1.4	.	-1.3	3	-7	-2	11	14	3.4
O=C(NN1CCOCC1)c1cc(-c2cccc(Cl)c2)nc2ccccc12	1.9	0.6	-5%	-32	3	9	5	13	9	-11
CCOc1ccc(C(=S)NC2CCCCC2)cc1OC	-0.3	-2.2	2%	6.0	-7	9	-19	-22	-27	-18
COc1ccc(COC(=O)CN2C(=O)NC3(CC(C)CC(C)(C)C3)C2=O)cc1F (stereo unspecified)	-0.2	.	-1%	-0.2	-11	.	.	.	.	.
CC1(C)CC(=O)N(CC(=O)NC2CCCC2)c2ccccc2S1(=O)=O	-0.4	-5.7	1%	-1.1	0	-6	1	8	12	-0.8
Cc1ccc(CN=c2c([N+](=O)[O-])nn(-c3ccc4c(c3)OCCO4)n2O)cc1	-4.7	-0.4	-2%	.	-7	32	?	.	.	.
COc1ccc(Br)cc1S(=O)(=O)NCCCN1CCOCC1	0.8	0.3	2%	-1.4	-8	-16	0	12	2	-7.0
Cc1ccc2c(c1)-c1c(cnn1CC(=O)N1CCCN(Cc3ccccc3F)C1)CO2	0.3	-4.8	-3%	1.5	-9	10	2	-8	-10	7.3
Cc1cc(N2C(=O)C(=O)/C(=C(/O)c3ccccc3)C2c2cccs2)no1 (stereo unspecified)	-1.8	1.2	?	.	-8	13	-5	.	.	.

Not all compounds are listed; count on the stated rates, not on these rows.
